High-throughput results from PubChem.
ID4 binder: binders of human ID4 protein; small molecule microarray, Flag-ID4 binding, fluorescence F/B; calls only; hit rate 1.2% among 31,000; AID 624137;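 active = spot signal over background at p below 0.07 in all four prints; compounds were printed on slides so no solution concentration is given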;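 note: a binder raises fluorescence above local background on the spot; about 2 pmol printed per array spot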
Target sequence (P47928 whole entry, looked up): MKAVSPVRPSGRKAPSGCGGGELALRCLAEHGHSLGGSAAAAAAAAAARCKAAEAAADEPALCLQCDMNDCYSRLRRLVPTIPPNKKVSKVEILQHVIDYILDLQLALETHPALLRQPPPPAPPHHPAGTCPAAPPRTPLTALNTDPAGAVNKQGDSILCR
Calls only; i = inactive. This is a subset; the hit share may differ from the screen's.

SMILES | ID4 binder
O=C(NCCCn1ccnc1)C1CC(c2cccc(Br)c2)=NO1 (centres undefined) | i
C[C@@H]1CN([C@@H](C)CO)C(=O)CCCn2nncc2CO[C@@H]1CN(C)Cc1cccc(C(F)(F)F)c1 | i
O=C(CCc1ccc(O)c(O)c1)C[C@H](CCc1ccc(O)c(O)c1)O[C@@H]1OC[C@@H](O)[C@H](O)[C@H]1O | i
CCCNC(=O)Nc1ccc2c(c1)C(=O)N(C)C[C@@H](OC)[C@H](C)CN(C)[C@H](C)CO2 | i
Cc1nc(SCC(=O)c2cccs2)c2c3c(sc2n1)CCCC3 | i
CCC(C(N)=O)c1ccccc1 (centres undefined) | i
COC(=O)c1c(NC(=O)CSc2ncn[nH]2)sc2c1CCCC2 | i
CCCN(C)C[C@H]1Oc2cc(C#CCC3CCCC3)ccc2S(=O)(=O)N([C@H](C)CO)C[C@@H]1C | i
C[C@@H]1CN([C@H](C)CO)S(=O)(=O)c2ccc(C#CC3CC3)cc2O[C@@H]1CN(C)CC1CC1 | i
CO[C@@H](CN(C)Cc1cc(F)ccc1F)[C@H](C)CN(C(=O)Nc1ccc(C(F)(F)F)cc1)[C@@H](C)CO | i
COc1ccc(NC(=S)NC(=O)C(C)Oc2ccc(Cl)cc2Cl)c([N+](=O)[O-])c1 (centres undefined) | i
CS(=O)(=O)Nc1ccc2c(c1)[C@@H]1C[C@H](CC(=O)NCc3cccc(F)c3)O[C@@H](CO)[C@@H]1O2 | i
Cc1cc(OCC(=O)Nc2ccccc2[N+](=O)[O-])ccc1Cl | i
CCOC(=O)C1CCCCN1Cc1ccc(OC)c(C)c1OC (centres undefined) | i
O=C1CCc2c(ccc3ccccc23)O1 | i
Cc1ccc(NC(=O)CCn2cnc3ccccc3c2=O)cc1Cl | i
C[C@H](CO)N1C[C@H](C)[C@H](CN(C)CC2CC2)Oc2cc(-c3cccc(F)c3)ccc2S1(=O)=O | i
CCOc1ccc2nc(NCCCO)[nH]c2c1 | i
COC(=O)C[C@@H]1C=C[C@@H](NS(=O)(=O)c2ccccc2F)[C@@H](CO)O1 | i
C[C@@H]1CN([C@H](C)CO)C(=O)c2cc(N(C)C)ccc2O[C@@H]1CN(C)Cc1ccc(Cl)c(Cl)c1 | i
C[C@@H]1CN([C@@H](C)CO)C(=O)c2cccc(NC(=O)C3CC3)c2O[C@@H]1CN(C)C | i
Cn1nnnc1SCC(=O)Nc1ccccc1C(N)=O | i
COC(=O)c1ccc(NC(=O)CSc2nnc(-c3ccccc3F)n2C)cc1 | i
CCCN(C)C[C@@H]1Oc2cc(-c3cccc(F)c3)ccc2S(=O)(=O)N([C@@H](C)CO)C[C@@H]1C | i
O=C(CN1C(=O)c2ccccc2S1(=O)=O)Nc1ccc(N2CCOCC2)cc1 | i

A second format for some results above:
SMILES	ID4 binder
CCOc1ccc2nc(NCCCO)[nH]c2c1	i
O=C1CCc2c(ccc3ccccc23)O1	i
COC(=O)c1c(NC(=O)CSc2ncn[nH]2)sc2c1CCCC2	i
C[C@H](CO)N1C[C@H](C)[C@H](CN(C)CC2CC2)Oc2cc(-c3cccc(F)c3)ccc2S1(=O)=O	i
Cc1ccc(NC(=O)CCn2cnc3ccccc3c2=O)cc1Cl	i

Additional entries follow:
SMILES | ID4 binder
CCOc1ccc(NC(=O)CSc2nnc(-c3cc(Cl)ccc3O)n2C)cc1 | i
CCOC(=O)C1CN(Cc2ccccc2)C(=O)C1=O (centres undefined) | i
C[C@@H]1CN([C@@H](C)CO)C(=O)c2cc(-c3cccnc3)cnc2O[C@H]1CN(C)Cc1ccccc1 | i
COC(=O)c1ccsc1NC(=O)CN1c2cccc3cccc(c23)S1(=O)=O | i
C[C@@H]1CN([C@@H](C)CO)S(=O)(=O)c2ccc(C3=CCCCC3)cc2O[C@@H]1CN(C)S(C)(=O)=O | i
CS(=O)(=O)N(CC(=O)Nc1ccc(F)cc1)c1cccc(Br)c1 | i
COC(=O)c1ccc(NC(=O)CCC(=O)c2ccc(Br)cc2)cc1 | i
CCCNC(=O)N(C)C[C@@H]1Oc2ncc(C#CC3CC3)cc2C(=O)N([C@@H](C)CO)C[C@H]1C | i
COCC#Cc1ccc2c(c1)O[C@@H](CN(C)C)[C@@H](C)CN([C@H](C)CO)S2(=O)=O | i
CCOc1ccc2nc(SCC(=O)Nc3ccc([N+](=O)[O-])cc3)[nH]c2c1 | i
O=C(O)C[C@@H]1C[C@H]2c3cc(NC(=O)Nc4ccccc4F)ccc3O[C@H]2[C@H](CO)O1 | i
CNC[C@H]1Oc2ncc(-c3ccccc3F)cc2C(=O)N([C@H](C)CO)C[C@H]1C | i
C[C@H]1CN([C@@H](C)CO)C(=O)Cc2cc(NC(=O)C3CCCCC3)ccc2O[C@@H]1CN(C)CC1CC1 | i
O=C(C[C@@H]1C[C@@H]2c3cc(NC(=O)Nc4ccc(C(F)(F)F)cc4)ccc3O[C@@H]2[C@@H](CO)O1)NCc1cccnc1 | i
Cc1ccc(Cl)cc1N(CC(=O)Nc1cccc([N+](=O)[O-])c1C)S(C)(=O)=O | i
C[C@@H]1CN([C@H](C)CO)C(=O)c2cc(-c3cccc(F)c3)cnc2O[C@@H]1CN(C)Cc1ccccn1 | i
O=C(CCCN1CCC(O)(c2ccc(Cl)cc2)CC1)c1ccc(F)cc1 | i
COc1ccc(C#Cc2cnc3c(c2)C(=O)N([C@H](C)CO)C[C@@H](C)[C@@H](CN(C)CC2CCCC2)O3)cc1 | i
C[C@H]1CN([C@@H](C)CO)C(=O)c2cc(C#CC3CC3)cnc2O[C@@H]1CN(C)Cc1ccncc1 | i
CC(=O)Nc1cccc(NC(=O)c2cccc(Cn3cc(Cl)cn3)c2)c1 | i
C[C@H](CO)N1C[C@H](C)[C@@H](CN(C)C(=O)c2ccc3c(c2)OCO3)Oc2cc(-c3cncnc3)ccc2S1(=O)=O | i
COC(=O)c1ccccc1NC(=O)Cc1coc2c(C)c(C)ccc12 | i
CN1C(=O)c2ccc(C(=O)Nc3ccc(OCC(=O)O)cc3)cc2C1=O | i
Cc1cc(C)c2c(=O)[nH]c(SCC(=O)NCc3ccccc3)nc2n1 | i
Cc1ccc(S(=O)(=O)N(CC(N)=O)c2ccc(Cl)c(Cl)c2)cc1 | i

Gathered by group: the compounds so far containing a CF3 group
SMILES | ID4 binder
C[C@@H]1CN([C@@H](C)CO)C(=O)CCCn2nncc2CO[C@@H]1CN(C)Cc1cccc(C(F)(F)F)c1 | i
CO[C@@H](CN(C)Cc1cc(F)ccc1F)[C@H](C)CN(C(=O)Nc1ccc(C(F)(F)F)cc1)[C@@H](C)CO | i
O=C(C[C@@H]1C[C@@H]2c3cc(NC(=O)Nc4ccc(C(F)(F)F)cc4)ccc3O[C@@H]2[C@@H](CO)O1)NCc1cccnc1 | i

Carrying on:
SMILES | ID4 binder
CN(CCc1ccccn1)c1ccc([N+](=O)[O-])cn1 | i
C=CCn1c2ccccc2c2nnc(SCC(=O)c3ccc(Cl)cc3)nc21 | i
CS(=O)(=O)N(CC(=O)Nc1ccccc1-c1ccccc1)c1ccc(Br)cc1 | i
Cc1ccc(N(C(C)C(=O)Nc2ccc(Cl)cc2)S(C)(=O)=O)cc1C (centres undefined) | i
CCCC#Cc1cnc2c(c1)C(=O)N([C@@H](C)CO)C[C@H](C)[C@@H](CN(C)C(=O)Cc1ccccc1)O2 | i
Cc1ccc(-n2ncc(N(C)N3CC(C)(C)C3=O)c(Cl)c2=O)cc1 | i
C/C=C/c1cnc2c(c1)C(=O)N([C@H](C)CO)C[C@@H](C)[C@@H](CN(C)Cc1ccccc1)O2 | i
COC(=O)C[C@H]1CC[C@@H](N)[C@H](CO)O1 | i
O=C(C[C@@H]1C=C[C@H](NC(=O)C2CC2)[C@@H](CO)O1)NCC1CC1 | i
C[C@H](CO)N1C[C@H](C)[C@@H](CN(C)C(=O)C2CCC2)Oc2ncc(C#Cc3cccc(F)c3)cc2C1=O | i
Cc1cc(C)c(NC(=O)CSc2nc(-c3ccccc3)c(-c3ccccc3)[nH]2)c(C)c1 | i
O=C(N[C@H]1CC[C@@H](CC(=O)N2CCOCC2)O[C@H]1CO)c1ccccn1 | i
CC(C)(C)C1CCc2c(sc(NC(=S)NC(=O)c3cc4ccccc4o3)c2C(N)=O)C1 (centres undefined) | i
CCn1cc(CNC(=O)c2cc(-c3cccnc3)nc3ccc(Br)cc23)c(C)n1 | i
CCC(=O)N(C)C[C@H]1Oc2ncc(C#Cc3ccncc3)cc2C(=O)N([C@H](C)CO)C[C@H]1C | i
CC(C)C#Cc1cnc2c(c1)C(=O)N([C@@H](C)CO)C[C@H](C)[C@H](CN(C)Cc1cncnc1)O2 | i
COc1ccc(NC(=O)C2CC(c3ccccc3O)=NO2)cc1OC (centres undefined) | i
O=C(O)C[C@@H]1CC[C@@H](NC(=O)c2ccccc2F)[C@H](CO)O1 | i
CNCCc1ccccn1 | i
COc1ccc(NC(=O)Nc2nn(Cc3c(F)cccc3Cl)cc2Br)c(OC)c1 | i
O=C(CC(=O)c1ccc(O)cc1)OC[C@H]1O[C@@H](Oc2ccc(O)cc2)[C@H](OC(=O)c2ccc(O)cc2)[C@@H](O)[C@@H]1O | i
COc1cc([N+](=O)[O-])ccc1NC(=S)NCc1cc(C)n(C)n1 | i
COc1ccccc1Nc1nc(C2(C)CCC(=O)O2)cs1 (centres undefined) | i
CCCN(C)C[C@@H]1Oc2ncc(C#CCOC)cc2C(=O)N([C@H](C)CO)C[C@@H]1C | i
CN1CCN(Cc2c(O)ccc3c(=O)c(-c4ccc(Cl)cc4Cl)c(C(F)(F)F)oc23)CC1 | i

Carrying on:
SMILES | ID4 binder
Cc1ccc(S(=O)(=O)n2nc(-n3c(C)ccc3C)c3c(F)cccc32)c2ccccc12 | i
CCOc1ccc2nc(Nc3nc(C)c(CCC(C)C)c(=O)[nH]3)nc(C)c2c1 | i
Cc1sc2ncn(CC(=O)Nc3c(C(C)C)cccc3C(C)C)c(=O)c2c1C | i
Cc1nc(-c2cc(C#N)c(Oc3ccc(C(F)(F)F)cc3)nc2C)cs1 | i
CCOc1cc(C2N3CCc4ccccc4C3CN2S(=O)(=O)c2ccc(C)cc2)ccc1OC (centres undefined) | i
CCCCn1c(CSc2ccccn2)cn(-c2nnc(C(C)(C)C)s2)c1=O | i
CCOc1c(S(=O)(=O)NCc2cccnc2)ccc(Cl)c1Cl | i
C[C@@H]1CN([C@H](C)CO)C(=O)c2ccccc2-c2ccccc2CO[C@@H]1CN(C)C | i
O=C(N[C@@H]1CC[C@@H](CC(=O)N2CCc3ccccc3C2)O[C@H]1CO)C1CC1 | i
Cc1cc(Cl)c(S(=O)(=O)NC23CC4CC(CC(C4)C2)C3)cc1OCC(N)=O | i
COc1ccc(OC)c(NC(=O)Cc2coc3ccc4ccccc4c23)c1 | i
C[C@@H]1CN([C@@H](C)CO)C(=O)c2cc(C#CCc3ccccc3)cnc2O[C@H]1CN(C)Cc1ccccn1 | i
Cc1cccc(-c2nnc(SCC(=O)Nc3cc([N+](=O)[O-])ccc3C)o2)c1 | i
COC(=O)C1=C(C)Nc2ncnn2C1c1ccco1 (centres undefined) | i
Cc1ccc(S(=O)(=O)N2CCN(c3ccc([N+](=O)[O-])c(NCc4ccco4)c3)CC2)cc1C | i
O=C(NCC[C@@H]1CC[C@H](NC(=O)C2CCC2)[C@@H](CO)O1)c1ccc(F)cc1 | i
Cc1ccc(S(=O)(=O)N(C)C[C@@H]2Oc3ncc(-c4ccncc4)cc3C(=O)N([C@@H](C)CO)C[C@H]2C)cc1 | i
COc1ccc(S(=O)(=O)n2cc(-c3ccc(F)cc3)c(N)n2)c(OC)c1 | i
C[C@H](CO)N1C[C@H](C)[C@@H](CN(C)Cc2ccccc2F)Oc2ncc(C#CCN(C)C)cc2C1=O | i
O=C(CSc1nnc(-c2cccc([N+](=O)[O-])c2)n1-c1ccccc1)c1ccc(Br)cc1 | i
C[C@@H]1CN([C@@H](C)CO)C(=O)CCCn2nncc2CO[C@@H]1CN(C)CC1CCCC1 | i
Cn1c(SCC(=O)Nc2c(F)cc(F)cc2Br)nnc1-c1cnccn1 | i
CC(=O)Nc1ccc(NC(=O)CN2C(=O)COc3ccc(Cl)cc32)cc1 | i
CCC(=O)N(C)C[C@@H]1Oc2ncc(C#CC(C)C)cc2C(=O)N([C@@H](C)CO)C[C@H]1C | i
COc1cc(C2C3=C(CC(C)(C)CC3=O)Nc3ncnn32)ccc1OCC(=O)N1CCOCC1 (centres undefined) | i

Compounds shown so far containing a tert-butyl group:
SMILES | ID4 binder
CC(C)(C)C1CCc2c(sc(NC(=S)NC(=O)c3cc4ccccc4o3)c2C(N)=O)C1 (centres undefined) | i
CCCCn1c(CSc2ccccn2)cn(-c2nnc(C(C)(C)C)s2)c1=O | i

Remaining list, next part.
SMILES | ID4 binder
O=C(O)Cn1cc(C(=O)c2cccs2)c2ccccc21 | i
CN(C)c1ccc(NC(=O)CN(C)S(=O)(=O)c2ccc(Br)cc2)cc1 | i
Cc1ccc(Cl)cc1NC(=O)CN(c1ccc(Cl)cc1)S(C)(=O)=O | i
CC(NS(=O)(=O)c1ccc(F)cc1)C(=O)Nc1cc(Cl)ccc1Oc1ccccc1 (centres undefined) | i
C[C@H]1CN([C@@H](C)CO)C(=O)c2cc(C#CC3CC3)cnc2O[C@H]1CN(C)Cc1ccccn1 | i
COc1ccc(NC(=O)COc2ccc(Cl)cc2)cc1NC(=O)c1ccco1 | i
C[C@@H]1CN([C@H](C)CO)C(=O)c2cc(C#CCN(C)C)cnc2O[C@@H]1CN(C)S(=O)(=O)c1cn(C)cn1 | i
CS(=O)(=O)N(CC(=O)Nc1ccc(Br)cc1)c1ccc(Cl)cc1Cl | i
CC(=O)c1ccc(NC(=O)CSc2nc3ccc(NC(=O)c4ccccc4Cl)cc3s2)cc1 | i
C[C@@H]1CN([C@H](C)CO)S(=O)(=O)c2ccc(-c3ccccc3F)cc2O[C@@H]1CN(C)C | i
O=C(CCSc1nnnn1-c1ccccc1)Nc1ccc(Cl)cc1 | i
COc1ccccc1NC(=O)N(C)C[C@@H]1Oc2ncc(Br)cc2C(=O)N([C@@H](C)CO)C[C@@H]1C | i
COC(=O)c1cc2c(N)c(C(=O)OC)sc2nc1C(OC)OC | i
N#C[C@H]1[C@@H](c2ccc(C3=CCCC3)cc2)[C@@H](CO)N1C(=O)C1CCC1 | i
COc1c(O)cc2c(c1O)C(=O)CC(c1ccccc1)O2 (centres undefined) | i

Part of the list above in a different format.
SMILES	ID4 binder
CC(=O)c1ccc(NC(=O)CSc2nc3ccc(NC(=O)c4ccccc4Cl)cc3s2)cc1	i
C[C@@H]1CN([C@H](C)CO)S(=O)(=O)c2ccc(-c3ccccc3F)cc2O[C@@H]1CN(C)C	i
